LASV entry inh: inhibitors of Lassa virus binding or cell entry; Lassa virus pseudotype entry inhibition, cell reporter; control for the full effect not named in the record; Potency, µM (series often up to 37.9 µM), for the others: at the top dose activity change, negative = inhibition, usual class: inhibitors; actives 1.2% (n = 300,000); AID 540256; active means well fitted inhibition curve with a large enough effect; inconclusive means small, poorly fitted or top-dose-only effect, or effect the other way; inactive means flat fitted curve, though single readings scatter; tested in HEK293 cells; also: % is scaled to controls: 0 for no effect and ±100 for the full control effect; nearly all actives have a fitted effect of over 50% in size; luciferase read-out
NS1 inh: blocks influenza NS1 protein function. Potency, µM (highest dose often 46.1 µM), without a hit: at the highest dose activity, positive = more growth. S. cerevisiae slowed by influenza A NS1, growth recovery by OD600. actives 0.4% (n = 270,000); also: actives are rising curves; nearly all actives have a fitted effect of over 50% in size
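Recovery from NS1-induced slow growth read by OD600 in budding yeast switched to galactose assay medium (pH 6.0, -URA) at 1:100 dilution. Compound 23 nl per well; the matching strain lacking NS1 serves as control.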
MARV entry inh: Marburg virus entry inhibition; Potency, µM (doses to about 37.8 µM), inactives show at the highest dose activity change, negative = inhibition, actives largely listed as inhibitors; AID 540276; Marburg virus pseudotyped entry inhibition, cell reporter; control for the full effect not named in the record; about a third of the inactives were read at about 46 µM; actives 1.8% (n = 300,000); active = well fitted inhibition curve with a large enough effect; inconclusive = small, poorly fitted or top-dose-only effect, or effect the other way; inactive = flat fitted curve, though single readings scatter; tested in HEK293 cells; about a fifth of its hits are not listed in these tables; also: % is scaled to controls: 0 for no effect and ±100 for the full control effect; luciferase read-out
2A StopGo: FMDV 2A StopGo reporter, luciferase signal; human cells with a luciferase reporter of 2A StopGo recoding; control for the full effect not named in the record; Potency, µM (doses to about 57.9 µM), for inactives: at the highest dose signal change, negative = less light; actives 1.2% (n = 410,000); active = well fitted falling curve with a large enough effect; inconclusive = small, poorly fitted or top-dose-only effect; inactive = no such curve, though single readings can be large or run the other way; tested in HEK293T cells; also: % is scaled to controls: 0 for no effect and ±100 for the full control effect; nearly all actives have a fitted effect of over 45% in size; luciferase light after 4 h
RE007 growth inh: less growth of the S. pombe RE007 Vpr strain. Potency, µM (series often up to 92.2 µM), for inactives: top-dose activity change, negative = less growth. S. pombe RE007 Vpr strain, BacTiter-Glo ATP luminescence, 24 h; control for the full effect not named in the record. AID 651644. actives 0.21% (n = 360,000); active = well fitted falling curve with a large enough effect; inconclusive = small, poorly fitted or top-dose-only effect; inactive = no such curve, though single readings can be large or run the other way;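 also: % is scaled to controls: 0 for no effect and ±100 for the full control effect; nearly all actives have a fitted effect of over 50% in size; the assay follows cell death caused by Vpr and the record does not say whether a fall means rescue or toxicity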
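Fission yeast strain RE007, carrying one chromosomally integrated HIV-1 vpr copy, was seeded at OD 0.01 in PMG+AL medium with 23 nL pinned compound. After 24 h at 30 °C and 99% humidity, viability was read by BacTiter-Glo luminescence.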
SARS PLpro yeast: inhibitors of SARS-CoV papain-like protease in yeast. S. cerevisiae expressing SARS-CoV PLpro, growth rescue; control for the full effect not named in the record. Potency, µM (titrated, usually from 32.9 µM), for the others: at the top dose activity, positive = growth rescue. actives 0.19% (n = 330,000). AID 485353; also: 0% is about no effect; nearly all actives have a fitted effect of over 55% in size; growth read by luminescence after 48 h
Cruzain inh Det: cruzain (T. cruzi) inhibition with detergent; AID 1478; P25779; Potency, µM, for inactives: max response, negative = inhibition, hits mostly inhibitors; actives 0.43% (n = 200,000); purified cruzain, Z-FR-AMC fluorescence, 0.01% Triton; active = well fitted curve in the direction sought with a large enough effect; inconclusive = small, poorly fitted or top-dose-only effect, or another doubt; inactive = no such curve, though single readings can be large; an effect the other way counts as inactive or inconclusive;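 also: plate controls were neutral wells for no effect and buffer without enzyme for full effect; nearly all actives have a fitted effect of over 40% in size; top concentration of the series not given in the record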
Target sequence (P25779 123-467 limits assumed): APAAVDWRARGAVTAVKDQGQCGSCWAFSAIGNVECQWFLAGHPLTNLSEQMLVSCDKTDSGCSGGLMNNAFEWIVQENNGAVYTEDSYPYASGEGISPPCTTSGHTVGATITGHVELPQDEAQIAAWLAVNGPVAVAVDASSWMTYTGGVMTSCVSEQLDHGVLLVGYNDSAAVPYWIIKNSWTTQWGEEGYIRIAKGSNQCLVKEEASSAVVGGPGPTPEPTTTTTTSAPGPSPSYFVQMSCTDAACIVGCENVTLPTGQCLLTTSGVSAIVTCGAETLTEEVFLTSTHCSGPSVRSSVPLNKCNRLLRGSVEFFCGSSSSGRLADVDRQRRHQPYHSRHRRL
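Read-out: AMC fluorescence (360 nm excitation, 450 nm emission), four reads over 2 min, first-to-third difference used. Conditions: cruzain 1.5 nM, Z-FR-AMC 2 uM, pH 5.5 acetate, 5 mM DTT, 0.01% Triton X-100.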
Cruzain inh noDet: cruzain (T. cruzi) inhibition without detergent | Potency, µM, inactives show max response, negative = inhibition, usual class: inhibitors | purified cruzain, Z-FR-AMC fluorescence, no detergent | P25779 | actives 2.3% (n = 200,000); active = well fitted curve in the direction sought with a large enough effect; inconclusive = small, poorly fitted or top-dose-only effect, or another doubt; inactive = no such curve, though single readings can be large; an effect the other way counts as inactive or inconclusive;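 also: plate controls were enzyme without inhibitor for no effect and buffer without enzyme for full effect; nearly all actives have a fitted effect of over 40% in size; top concentration of the series not given in the record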
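Purified cruzain at 1.5 nM, pre-incubated 15 min with compound at room temperature in 100 mM sodium acetate pH 5.5, 5 mM DTT, 0.00005% Triton X-100. Reaction started with 2 uM Z-FR-AMC; AMC fluorescence increase over 60 s gives rate.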
Active calls of the source: *; ? = inconclusive; / = not tested or not shown; & = joins results of further samples; [ ] = remark or other dose. Unless noted, calls follow the shape of the dose curve; as a rule, active means well fitted rising curve with a large enough effect; inconclusive means small, poorly fitted or top-dose-only effect; inactive means no such curve, though single readings can be large or run the other way. Potency is read from the fitted curve at half-maximal effect.

Every second line gives: LASV entry inh | NS1 inh | MARV entry inh | 2A StopGo | RE007 growth inh | SARS PLpro yeast | Cruzain inh Det | Cruzain inh noDet
(1) Cc1ccc(CN(c2ccc(C(=O)NCC3CCCO3)cc2)S(C)(=O)=O)cc1 (stereo not given)
    / | -4% | / | -9% | 5% | 0% | / | /
(2) CSc1ccccc1NC(=O)Nc1cccc(F)c1
    ? | -46% | ? | 10% | -23% | -2% | / | /
(3) CC(=O)c1cccc(NC(=O)CN(C)S(=O)(=O)c2ccc3c(c2)CC(C)N3C(C)=O)c1 (stereo not given)
    / | 4% | / | -25% | -4% | 15% | / | /
(4) CN(C)c1ccc(-c2nc(-c3cccs3)c(-c3cccs3)[nH]2)cc1
    ? | / | 4%[46.1 µM] | -22% | / | / | -5.9% | ?
(5) CN1CCN(Cc2c(O)ccc3cc(-c4ccccc4)c(=O)oc23)CC1
    16%[46.1 µM] | / | / | -12% | / | / | -5.3% | ?
(6) COc1ccccc1-c1nc(SCC(=O)N2CCOCC2)n[nH]1
    / | -3% | ? | 0% | 1% | 3% | / | /
(7) COC(=O)c1ccc(NC(=O)CCN2CCOCC2)cc1
    / | 8% | / | -2% | 13% | 3% | / | /
(8) Cc1ccc(C)c2[nH]c(=O)c(CN(CCN3CCOCC3)Cc3nnnn3CC3CCCO3)cc12 (stereo not given)
    9% | -6% | -3% | -22% | 8% | 9% | -1.2% | -1%
(9) Cc1cccc(OCC(O)Cn2ccnc2C)c1 (stereo not given)
    / | 5% | / | -6% | -9% | 7% | / | /
(10) CC(C)CN1CCC(=O)N(CCO)CC1
    / | -2% | / | -19% | 0% | 1% | / | /
(11) O=c1oc2ccccc2c(Nc2ccccc2O)c1[N+](=O)[O-]
    -2% | -46% | -17%[14.2 µM] | 12% | -6% | -4% | / | /
(12) CCOc1ccc(N(CC(=O)NC2CC3CCC2C3)S(=O)(=O)c2ccccc2)cc1 (stereo not given)
    10µM* | -19% | ? | 36%[activator] | -9% | -7% | / | /
(13) Cc1cc(NC(=O)c2ccc(Cl)cc2Cl)n(CCC#N)n1
    16%[46.1 µM] | / | ? | 13% | 2% | -1% | / | /
(14) O=C(CSc1nc2ccccc2nc1Cc1ccccc1F)Nc1cccc(C(F)(F)F)c1
    5%[46.1 µM] | / | ? | -7% | / | / | -4.9% | -9%
(15) O=C(c1cccc(NS(=O)(=O)c2ccc(F)c(F)c2)c1)N1CCN(Cc2ccccc2)CC1
    -8% | -8% | -25% | -25% | -2% | 13% | -2.1% | -5%
(16) COc1ccc(-n2nc(C(=O)NCC(=O)N3CCN(c4ccccc4)CC3)c3ccccc3c2=O)c(OC)c1
    ? | -2% | ? | 7% | -4% | -4% | / | /
(17) FC(F)Sc1ccc(-n2cc(-c3ccccc3)[n+]3c2CCC3)cc1
    -19% | ? | -25% | ? | 11% | -14% | -2.0% | -1%
(18) CCCCNC(=O)CCCCCn1c(=O)[nH]c2ccccc2c1=O
    -16%[46.1 µM] | / | / | 11% | / | / | 0.8% | -7%
(19) CCNC(=S)NNC(=O)Cn1c(=O)c2c(ncn2CCOC)n(Cc2ccccc2)c1=O
    -2% | 16% | 2%[46.1 µM] | 7% | 5% | -1% | / | /
(20) CC(C)CCOP(=O)(c1ccc(N(C)C)cc1)C(O)c1ccc(Cl)cc1Cl (stereo not given)
    ? | -41% | ? | 46%[activator] | 1% | -4% | / | /
(21) CCn1c(N)[n+](CC(=O)Nc2ccc(SC(F)F)cc2)c2ccccc21
    ? | 0% | 4.5µM* | -7% | -4% | -1% | / | /
(22) Cn1cnnc1SCC(=O)Nc1ncc(C(F)(F)F)cc1Cl
    / | 8% | / | -11% | 7% | -1% | / | /
(23) CCCCN1C(=O)C(O)(CC(=O)c2ccc(C)cc2C)c2cc(Br)ccc21 (stereo not given)
    4%[46.1 µM] | / | ? | -2% | / | / | -11% | 15%
(24) CC(=O)NC(=S)Nc1ccc(NC(=O)COc2ccc(Cl)cc2Cl)cc1
    5% | 8% | ? | 6% | -13% | 2% | 5.5% | 3%
(25) O=C(/C=N/O)NCCN1CCCCC1
    1% | 5% | ? | / | 12% | 0% | 9.7% | 19%
(26) Cc1nn(C)c(Cl)c1/C=C/C(=O)O
    -6% | 4% | 0%[46.1 µM] | -7% | -10% | 0% | / | /
(27) Oc1ccc(NC(=S)Nc2ccccc2)cc1
    7% | 5%&7% | ? | 17%&8% | -13% | ? | 0.5% | 2%
(28) CC(=O)NC(Cc1cccc(F)c1)C(=O)NC1CCN(C(=O)Nc2ccccc2)CC1 (stereo not given)
    / | -11% | 4%[46.1 µM] | -22% | -4% | 4% | / | /
(29) CN(C)CC(=O)Nc1ccc(Oc2ccc(Cl)cc2)cc1
    ? | -7% | ? | -10% | 1% | -1% | / | /
(30) O=C(c1ccccc1-c1nc2ccccc2[nH]1)N1CCOCC1
    19% | -3% | 4% | 0% | 4% | 4% | 4.1% | 3%

Molecules shown so far containing a CF3 group, in the order listed:
Every second line gives: LASV entry inh | NS1 inh | MARV entry inh | 2A StopGo | RE007 growth inh | SARS PLpro yeast | Cruzain inh Det | Cruzain inh noDet
(14) O=C(CSc1nc2ccccc2nc1Cc1ccccc1F)Nc1cccc(C(F)(F)F)c1
    5%[46.1 µM] | / | ? | -7% | / | / | -4.9% | -9%
(22) Cn1cnnc1SCC(=O)Nc1ncc(C(F)(F)F)cc1Cl
    / | 8% | / | -11% | 7% | -1% | / | /

Additional compounds
Every second line gives: LASV entry inh | NS1 inh | MARV entry inh | 2A StopGo | RE007 growth inh | SARS PLpro yeast | Cruzain inh Det | Cruzain inh noDet
(31) CCC(C)(C)NC(=O)C(c1sccc1C)N(Cc1ccco1)C(=O)c1csnn1 (stereo not given)
    ? | 4% | -16%[46.1 µM] | 16% | 2% | -1% | / | /
(32) Cc1ccccc1-n1c(SCC(=O)NCC2CCCO2)nnc1-c1ccncc1 (stereo not given)
    -23% | / | -1% | 1% | 3% | -6% | / | /
(33) Cc1nc(S/C(=C/c2ccc(-c3ccc(Cl)cc3)o2)C(=O)O)n[nH]1
    ? | 7% | 16% | 0% | -1% | 4% | -1.6% | 13µM*
(34) O=C1NC2=C(C(=O)OC2)C(c2ccc(OC(F)(F)F)cc2)N1 (stereo not given)
    24% | -48% | 20% | -10% | -11% | 0% | / | /
(35) COc1ccccc1NC(=O)NCC(=O)Nc1ccc(F)c(F)c1
    -8% | -3% | -8% | -4% | 5% | 1% | 2.2% | 6%
(36) O=C(NC1CC1)C1=C[C@@H](c2ccc(Br)cc2)C[C@@H](OCc2ccc(CO)cc2)O1
    / | -12% | / | -5% | 34% | -4% | / | /
(37) O=C1CC(c2ccc(OCCCCCOc3ccc(C4CC(=O)NC4=O)cc3)cc2)C(=O)N1 (stereo not given)
    ? | -3% | ? | 28µM* | -12% | -1% | / | /
(38) COCCCn1cc(C(=O)c2cc(OC)ccc2OCC(=O)N2CCCCC2C)cc(C#N)c1=O (stereo not given)
    -10% | / | 29%[46.1 µM] | 43%[activator] | 2% | 1% | / | /
(39) COc1ccccc1CNC(=O)CCn1c(=O)sc2ccccc21
    -2% | -9% | 1% | / | 12% | -17% | 1.2% | -6%
(40) CC(C)Sc1nc(SCC(=O)NCc2ccco2)c2c3c(sc2n1)COC(C)(C)C3
    -10% | 2% | -9% | ? | 12% | 4% | 25µM* | 25µM*
(41) COc1cc(OC)c(C2CC(=O)Nc3ccc4ccccc4c32)cc1OC (stereo not given)
    29%[46.1 µM] | / | ? | 21% | / | / | -1.4% | 1%
(42) CCCCCOC(=O)C1=C(C)NC(=O)NC1c1ccc([N+](=O)[O-])cc1 (stereo not given)
    ? | 16% | ? | ? | 6% | 2% | / | /
(43) COc1ccc(S(=O)(=O)Nc2cccc(C)n2)c2ccccc12
    9% | -8% | -20% | 56%[activator] | 11% | -6% | 2.3% | -7%
(44) COC(=O)N1CN(C(=O)OC)CN(C(=O)OC)C1
    -1% | 1% | 11% | -22% | -6% | 2% | 1.3% | 4%
(45) O=C(N=Nc1c(O)[nH]c2ccc(Cl)cc12)c1cc(-c2cccs2)nc2ccccc12
    ? | 14% | ? | 19% | 4% | 14% | -1.3% | -10%
(46) CC1(C)CC(=O)c2cc(OCC(=O)NCCN3CCCc4ccccc43)ccc2O1
    -16% | -3% | 5% | -12% | -15% | 6% | -6.6% | 8%
(47) O=C(c1cc(-c2ccc3c(c2)OCO3)on1)N1CCCCC1
    2.8µM* | -8% | ? | -30% | -9% | -8% | / | /
(48) COc1ccc(S(=O)(=O)N(C)CC(=O)NC2CCCC2)cc1OC
    -3% | 11% | -16% | -9% | 5% | 7% | / | /
(49) CC(C)(C)C(=O)Nc1ccc(F)cc1[N+](=O)[O-]
    / | 0% | / | -8% | 9% | 1% | / | /
(50) O=C(CCc1ccccc1)N=C1SC2CS(=O)(=O)CC2N1c1ccccc1F (stereo not given)
    -21%[46.1 µM] | -2% | -1%[46.1 µM] | -7% | -12% | -4% | / | /

Arranged by SMILES length (largest number first): 5 of the compounds above
Every second line gives: LASV entry inh | NS1 inh | MARV entry inh | 2A StopGo | RE007 growth inh | SARS PLpro yeast | Cruzain inh Det | Cruzain inh noDet
(36) O=C(NC1CC1)C1=C[C@@H](c2ccc(Br)cc2)C[C@@H](OCc2ccc(CO)cc2)O1
    / | -12% | / | -5% | 34% | -4% | / | /
(37) O=C1CC(c2ccc(OCCCCCOc3ccc(C4CC(=O)NC4=O)cc3)cc2)C(=O)N1 (stereo not given)
    ? | -3% | ? | 28µM* | -12% | -1% | / | /
(31) CCC(C)(C)NC(=O)C(c1sccc1C)N(Cc1ccco1)C(=O)c1csnn1 (stereo not given)
    ? | 4% | -16%[46.1 µM] | 16% | 2% | -1% | / | /
(34) O=C1NC2=C(C(=O)OC2)C(c2ccc(OC(F)(F)F)cc2)N1 (stereo not given)
    24% | -48% | 20% | -10% | -11% | 0% | / | /
(41) COc1cc(OC)c(C2CC(=O)Nc3ccc4ccccc4c32)cc1OC (stereo not given)
    29%[46.1 µM] | / | ? | 21% | / | / | -1.4% | 1%

Compound activity: PubChem BioAssay, National Center for Advancing Translational Sciences (NCATS)
